rRNA inh HTS: selective bacterial rRNA inhibition in E. coli; E. coli WT GFP vs humanized-ribosome RFP mutants, fluorescence, 24 h; stronger effect = lower value; DMSO median 0, no signal -100; GFP signal change (wild-type ribosome), % (no concentration beside the values); 1.6% of 350,000 active;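 active = significant combined selectivity score with lowered wild-type GFP, culture density cut under 30%, mutant RFP and density less affected; inactive = any of these conditions unmet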; note: one replicate is shown; some compounds called inactive have numbers as strong as hits
ALR H2O2 inh: human ALR oxidase inhibition via reduced H2O2. 3.8% of 290,000 active. P55789. inhibition, % (no concentration beside the values). purified ALR, DTT oxidation, H2O2 HRP-luminol luminescence;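 active = mean and each replicate at 75% or more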;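 note: stock transfer was 7.5 nL into about 7.5 µL; 0% = neutral wells and 100% = wells with inactivated enzyme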
Target sequence (P55789 whole entry, looked up): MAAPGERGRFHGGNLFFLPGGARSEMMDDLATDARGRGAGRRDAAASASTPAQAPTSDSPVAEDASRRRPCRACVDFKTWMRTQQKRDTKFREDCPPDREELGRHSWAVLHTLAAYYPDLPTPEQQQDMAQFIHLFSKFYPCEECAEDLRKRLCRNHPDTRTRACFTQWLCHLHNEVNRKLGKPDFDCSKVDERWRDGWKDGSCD
Beta2AR agonist: human beta-2 adrenergic receptor agonism by FAP; Am2.2-beta2AR cells, FAP receptor internalization, flow cytometry; reference of the scale not given here; AID 504454; 0.43% of 340,000 active; P07550; response, % (test concentration not listed);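 active = response above a set limit, near 3 SD of response in nonfluorescent compounds, cut at about 42% in these data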;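 note: stock transfer was 100 nL into about 11 µL; a reference agonist was the positive control; negative values mostly stem from fluorescent compounds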
Target sequence (P07550 whole entry, looked up): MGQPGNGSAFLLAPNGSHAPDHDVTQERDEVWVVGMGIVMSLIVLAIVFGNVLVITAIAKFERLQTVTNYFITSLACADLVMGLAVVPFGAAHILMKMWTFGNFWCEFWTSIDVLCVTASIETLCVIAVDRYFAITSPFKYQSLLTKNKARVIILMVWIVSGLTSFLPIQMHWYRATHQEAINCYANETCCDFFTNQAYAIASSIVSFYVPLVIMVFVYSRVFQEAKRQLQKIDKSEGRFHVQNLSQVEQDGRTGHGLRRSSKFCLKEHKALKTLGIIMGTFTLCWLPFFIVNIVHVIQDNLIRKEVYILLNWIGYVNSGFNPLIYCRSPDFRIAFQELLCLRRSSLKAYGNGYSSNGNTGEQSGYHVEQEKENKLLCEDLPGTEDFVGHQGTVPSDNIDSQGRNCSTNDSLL
Ecoli growth: inhibitors of Escherichia coli growth; OD600, 23 h; stronger effect = lower value; OD600 absorbance (test concentration not listed); 0.21% of 330,000 active;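 active = OD600 absorbance below the run mean of sample wells minus 3.6 SD, in any replicate, cut at about 0.56 in these data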;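 note: stock transfer was 300 nL into about 60 µL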
HNF4A DNA FP: change in binding of human HNF4 alpha to DNA | activity change, % at 10 µM | 0.3% of 360,000 active | HNF4a-FITC DNA binding, fluorescence polarization, 1 h | P41235; in the data active = activity change above about 30%, passing the limit was not always enough;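 note: controls were the assay level and a saturating level of protein; the project sought stronger binding though the title names inhibitors; some compounds called inactive have numbers as strong as hits; positive values seem to mean higher polarization but the record does not say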
Target sequence (P41235 whole entry, looked up): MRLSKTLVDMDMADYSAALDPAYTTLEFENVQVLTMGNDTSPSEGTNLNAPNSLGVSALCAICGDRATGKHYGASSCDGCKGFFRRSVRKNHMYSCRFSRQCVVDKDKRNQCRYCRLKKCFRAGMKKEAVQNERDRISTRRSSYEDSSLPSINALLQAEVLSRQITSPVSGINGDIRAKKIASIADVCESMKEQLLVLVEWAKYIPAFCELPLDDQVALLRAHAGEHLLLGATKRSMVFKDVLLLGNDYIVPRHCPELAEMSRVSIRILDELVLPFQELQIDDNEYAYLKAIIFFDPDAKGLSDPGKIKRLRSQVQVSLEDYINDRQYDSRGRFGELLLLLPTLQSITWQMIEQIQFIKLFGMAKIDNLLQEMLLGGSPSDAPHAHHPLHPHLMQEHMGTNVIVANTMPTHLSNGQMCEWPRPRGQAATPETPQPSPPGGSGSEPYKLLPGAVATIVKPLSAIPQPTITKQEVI
FGF22 binding: FGF22 (human) thermal shift binding. Q9HCT0. recombinant FGF22 thermal shift, SYPRO orange fluorescence; percent of sucrose octasulfate shift, DMSO zero. calls only at 9.99 µM. 1.5% of 340,000 active. AID 651658;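 active = melting point raised past a set limit in the mean and every replicate; three in four hits are not shown here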
UCH37 DUB inh: blocks the human deubiquitinase UCH37; Q9Y5K5; purified proteasome/UCH37, Ub-AMC cleavage fluorescence; inhibition, % (no concentration beside the values); 0.33% of 330,000 active;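 active = mean of two replicates above 20%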;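 note: 0% = compound-free wells with enzyme and 100% = wells lacking proteasome; stock transfer was 100 nL into about 20 µL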
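assay system = human UCH37 enzyme supplied as purified proteasome complex | amount = proteasome at 0.15 nM in the dispensed enzyme solution | schedule = 30 min compound-proteasome preincubation then 25 min substrate reaction, room temperature | measured by = fluorescence, ex 355 nm, em 460 nm | benchmarks = no-proteasome wells (full inhibition) and compound-free wells (no inhibition)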
rRNA inh HTS OD600: recorded beside rRNA inh HTS, whose call it bears; OD600 change, %; measured here: OD600 growth;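 optical density of the mix in the first replicate; 0 = DMSO median and -100 = no signal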
rRNA inh HTS RFP: also measured in rRNA inh HTS; calls as there; RFP signal change, %; measured here: RFP humanized mutant strains;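 first replicate; 0 = DMSO median and -100 = no signal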
Numbers without * were called inactive; i = inactive; . = no result given; + = active, no number.

SMILES	rRNA inh HTS	rRNA inh HTS OD600	rRNA inh HTS RFP	ALR H2O2 inh	Beta2AR agonist	Ecoli growth	HNF4A DNA FP	FGF22 binding	UCH37 DUB inh
CSc1cccc(NC(=O)CN2C(=O)COc3ccc(S(=O)(=O)N4CCOCC4)cc32)c1	-3	2	4.6	.	-3	0.78	-2.0	i	-0.7
O=C(Cc1csc(-c2cccc(F)c2)n1)Nc1cccc(S(=O)(=O)NC2=NCCC2)c1	-4	-9	-0.2	.	.	.	-2.0	i	.
Cc1ccsc1C(=O)OCC(=O)NC1CC1	10	13	2.3	-8	0	0.69	-1.4	i	2.8
CCNc1nc(NCC)nc(NC(N)=S)n1	5	9	-4.0	2	-9	0.69	-1.9	i	1.7
O=C(NCc1ccco1)c1ccccc1NS(=O)(=O)c1ccc2c(c1)OCCO2	.	.	.	5	4	0.7	0.3	.	-14
CSc1ccccc1OCc1cc(C(=O)N2CCN3CCCC3C2)no1 (stereo not drawn)	0	-3	-0.4	-3	2	0.63	-4.4	i	3.8
O=C(Cn1cnc2c(cnn2-c2ccc(Cl)cc2)c1=O)NC1CCCCC1	8	14	-1.5	-5	-10	0.76	2.8	i	6.8
COc1ccc(NC(=S)Nc2ccc3c(c2)c(=O)n(C)n3-c2ccccc2)cc1	-16	-25	-4.7	.	.	.	-0.5	i	.
CCN1CCN(C(=O)N2CCOCC2)CC1	-4	-4	-1.0	-4	4	0.67	-0.1	i	0.7
COc1cccc(NC(=O)NCCC2=CCCCC2)c1	-13	-19	-4.2	0	10	0.67	-1.8	i	5.3
O=C(NCCCN1CCCC1=O)C(=O)NCC1OCCCN1S(=O)(=O)c1cc(F)ccc1F (stereo not drawn)	14	11	-0.2	-6	3	0.7	1.5	i	3.5
Cc1ccc(CNC(=O)c2cc3c(-c4ccc(Cl)cc4)nn(C)c3s2)o1	-13	-22	0.8	80*	5	0.75	3.7	i	-7.7
Cc1ccc(-c2nnc(SCC(=O)Nc3nccs3)n2N)cc1	.	.	.	66	0	0.66	5.1	.	1.7
O=C(c1cc(COc2c(F)cccc2F)on1)N1CCN(C2CCCCC2)CC1	6	-5	-0.4	-6	0	0.64	-4.0	i	1.0
CCc1ccc(OCC(=O)NNC(=O)c2cc(S(=O)(=O)N(C)C)ccc2N2CCCC2)cc1	-9	-7	1.1	.	18	0.66	-1.2	i	-11

5 entries from above, sorted by count of non-hydrogen atoms, largest number first.
SMILES	rRNA inh HTS	rRNA inh HTS OD600	rRNA inh HTS RFP	ALR H2O2 inh	Beta2AR agonist	Ecoli growth	HNF4A DNA FP	FGF22 binding	UCH37 DUB inh
O=C(NCCCN1CCCC1=O)C(=O)NCC1OCCCN1S(=O)(=O)c1cc(F)ccc1F (stereo not drawn)	14	11	-0.2	-6	3	0.7	1.5	i	3.5
O=C(Cc1csc(-c2cccc(F)c2)n1)Nc1cccc(S(=O)(=O)NC2=NCCC2)c1	-4	-9	-0.2	.	.	.	-2.0	i	.
O=C(c1cc(COc2c(F)cccc2F)on1)N1CCN(C2CCCCC2)CC1	6	-5	-0.4	-6	0	0.64	-4.0	i	1.0
O=C(Cn1cnc2c(cnn2-c2ccc(Cl)cc2)c1=O)NC1CCCCC1	8	14	-1.5	-5	-10	0.76	2.8	i	6.8
CCNc1nc(NCC)nc(NC(N)=S)n1	5	9	-4.0	2	-9	0.69	-1.9	i	1.7

The results go on:
SMILES	rRNA inh HTS	rRNA inh HTS OD600	rRNA inh HTS RFP	ALR H2O2 inh	Beta2AR agonist	Ecoli growth	HNF4A DNA FP	FGF22 binding	UCH37 DUB inh
CN(C)CCCOC(=O)c1ccccc1	.	.	.	-5	7	0.7	0.9	.	2.8
CN(C(=O)c1ccccn1)c1nnc(-c2ccccn2)s1	.	.	.	3	1	0.71	-0.3	.	-37
CCCc1cc(C(=O)Nc2cnn(Cc3ccc(F)cc3)c2)no1	-14	-15	2.5	.	-12	0.71	0.9	i	-2.0
O=C(NCc1cccc(Br)c1)C1CC2Cn3c(nc4ccccc43)C2N1c1ccccc1 (stereo not drawn)	2	4	-4.8	77*	-8	0.7	2.3	i	0.3
Cc1cc(C)n(CCN(C)C(=O)C2CCC(=O)N(CCN3CCOCC3)C2)n1 (stereo not drawn)	9	12	-1.9	1	-11	0.72	3.6	i	0.8
O=C(NCCc1ccccc1)C1CCCN(c2ncnc3c2nc2n3CCCCC2)C1 (stereo not drawn)	-3	-19	-0.3	-2	-5	0.7	2.6	i	4.1
CCc1ccc(CCC(=O)Nc2nnc(C)s2)o1	.	.	.	3	0	0.61	-2.2	.	0.6
CCOC(=O)c1cc(NC(=O)N(CC)CC)c(C)nc1C	.	.	.	-1	10	0.75	1.8	.	0.8
COCCCNC(=S)NNC(=O)c1ccccn1	-24	-26	0.3	.	-1	0.62	-7.1	i	4.2
FC(F)(F)c1ccc(N2CCN(Cc3ccc4c(c3)OCO4)CC2)nc1	.	.	.	-2	1	0.64	-1.7	.	5.4
CCC(=O)N1CCN(c2ccc(Cl)cc2NC(=S)NC(=O)c2ccco2)CC1	10	13	0.3	.	-4	0.7	3.5	i	1.5
CCOC(=O)CSc1nnc(-c2ccccc2)o1	.	.	.	-3	-1	0.72	1.5	.	-0.3
Cc1nnc(SCc2nnc(-c3ccc(Cl)cc3)o2)n1-c1ccccc1	.	.	.	-7	-4	0.73	-1.2	.	1.6
COc1ccc(OC)c(C2=Nn3c(nnc3-c3ccco3)SC2)c1	.	.	.	1	9	0.65	2.0	.	5.6
CC(C)(C)NC(=S)NNC(=O)c1ccncc1	6	4	1.9	37	-3	0.63	-3.0	i	7.0
O=C(NCC1CCCO1)C(c1cccs1)N(Cc1ccccc1)C(=O)c1ccc(-c2ccccc2)[nH]1 (stereo not drawn)	.	.	.	.	1	0.75	-1.4	.	-1.2
O=C(NNC(=O)c1ccccc1OCc1ccccc1)c1ccccc1F	-13	-13	-0.8	14	-3	0.65	3.7	i	1.9
CCCCn1nnnc1SCC(=O)NCc1ccco1	.	.	.	30	0	0.67	0.8	.	0.8
COc1ccc(/C=C2\SC(=S)N(CCCC(=O)Nc3cc(C)on3)C2=O)cc1OC	7	12	2.2	0	1	0.64	-2.8	i	8.4
COc1ccccc1N1CCN(S(=O)(=O)c2ccccc2)CC1	.	.	.	98*	3	0.75	0.8	.	4.0
CCCn1c(SCC(N)=O)nc2c(c1=O)C1(CCCC1)Cc1ccccc1-2	.	.	.	-9	-15	0.69	-2.4	.	-0.6
O=C(NN1C(=O)NC2(CCCCC2)C1=O)c1ccc(Cl)c(Cl)c1	.	.	.	2	11	0.61	-3.9	i	0.1
CCc1nnc(NS(=O)(=O)c2ccc(NC(=S)NC(=O)/C=C/c3ccc([N+](=O)[O-])cc3)cc2)s1	6	2	-3.8	.	1	.	7.0	+	.
COC(=O)CCCNC(=O)c1ccc2nc(Cc3ccc(OC)cc3)oc2c1	-6	-3	-10.0	.	3	0.65	-2.4	i	-0.9
CC(C)(C)Cc1c(-c2ccc(F)cc2)nc2ccc(Cl)cn12	-1	-3	-3.6	.	.	.	5.8	i	.
CSc1nc(Cl)cc(N2CCOCC2)n1	0	-15	-3.0	-12	-9	0.67	-1.2	i	2.3
Cc1oc(-c2cccc3ccccc23)nc1CN1CCN(c2ncnc3ccccc23)CC1	-54	-75	-15	-3	1	0.69	2.2	i	2.2
Cc1c(C#N)c(=O)c(-[n+]2ccccc2)c([S-])n1-c1ccc(Cl)cc1	19	6	2.4	-9	7	0.71	-4.8	i	2.0
O=C(c1cccs1)N(C(=O)c1cccs1)c1ccccn1	1	1	0.3	-12	3	0.66	-0.4	i	3.8
CCOC(=O)N1CCN(C(=O)CSc2ccc(Cl)cc2)CC1	.	.	.	-10	9	0.61	-1.8	.	-0.5
COc1ccc(OC)c(NC(=O)Cc2nn(C)c(=O)c3ccccc23)c1	.	.	.	2	2	0.72	5.3	.	5.6
O=C(Nc1ccccc1-c1ccccc1)C(c1ccccc1)c1ccccc1	.	.	.	0	-3	0.64	-0.4	.	1.0
Cc1c(C(=O)N2CCN(c3cccc(Cl)c3)CC2)cccc1[N+](=O)[O-]	-24	-27	-4.6	-4	6	0.72	4.6	i	2.9
O=C(CCc1nnc(CCC2CCCCC2)o1)NCc1ccon1	-6	1	-0.8	0	4	0.69	1.0	i	0.0
Oc1c(Cl)cc(Cl)cc1/C=N/c1ncn[nH]1	-15	-10	0.3	-160	8	.	-5.2	i	.
O=C(c1cccc(N2C(=O)c3ccccc3C2=O)c1)N1CCCC(C(F)(F)F)C1 (stereo not drawn)	0	-3	-2.3	-2	-9	0.71	3.0	i	1.8
CCO[C@H]1OC(C(=O)NC2CC2)=C[C@@H](c2ccc3c(c2)OCO3)[C@@H]1CCCO	-3	8	-4.3	0	-16	.	-3.1	i	1.1
O=C(NCc1ccccn1)c1ccc(Cl)cc1Cl	.	.	.	-3	-8	0.68	-0.1	.	1.8
COCCCN(C(=O)c1ccco1)c1nc(-c2ccc(OC)cc2)cs1	-25	-32	-14	-1	6	0.66	2.6	i	6.1
Cc1ccc(S(=O)(=O)N2CCC[C@H]2C(=O)OCC(=O)N2c3ccccc3NC(=O)C2(C)C)cc1	-3	-5	3.9	.	-6	0.72	0.3	i	1.9
CCOC(=O)c1ccc(NC(=O)CSc2nnc(CNc3ccc(C)cc3)n2C)cc1	.	.	.	0	-4	0.74	0.2	.	2.4
CC1(C)CC(=O)C2=C(C1)OC(c1cccs1)C(C#N)=C2N (stereo not drawn)	-1	-1	0.9	11	7	0.72	-2.9	i	4.9
COc1ccc(NC(=O)c2oc3ccccc3c2NC(=O)C2CC2)cc1OC	-17	-31	1.6	-31	6	0.73	2.2	i	0.8
CC(C)c1nc2c(c(=O)n(C)c(=O)n2C)n1C	0	16	2.4	7	-4	0.67	0.3	i	3.3
Cc1ccc(S(=O)(=O)N2CCN(c3nn(C)c(=O)n(C)c3=O)CC2)cc1C	16	13	-0.2	-4	3	0.64	0.7	i	-0.6
COc1ccc(NC(=O)c2c(C(F)(F)F)nn(C)c2SCc2ccccc2)cc1	.	.	.	-2	3	0.62	-2.6	.	0.0
Cc1[nH]c2ccccc2c1/C=N/NC(=O)C1CC1(c1ccccc1)c1ccccc1 (stereo not drawn)	.	.	.	-5	4	.	11	.	.
O=C(COC(=O)CCc1nc2ccccc2c(=O)[nH]1)Nc1ccc(N2CCOCC2)cc1	9	1	-7.4	60	-11	0.68	-2.0	i	4.4
O=C(NCc1ccco1)N1c2ccccc2Sc2ccccc21	-24*	-2.9*	5.5*	12	2	0.71	0.5	i	1.4
COC(=O)C1=C(C)NC(C)=C(C(=O)OC)C1c1ccccn1	.	.	.	-4	3	0.66	3.6	i	-39
Cc1nn(-c2ccccc2)c(N2CCCCC2)c1/C=N/O	5	-5	1.6	-1	-15	.	-1.6	i	.
N#Cc1c(-c2ccccc2)nc(SCC(=O)Nc2ccccc2F)[nH]c1=O	-11	-8	0.3	99*	-1	0.68	-2.4	+	2.6
O=C1NC(CCc2ccccc2)C(=O)N1CCOc1ccccc1 (stereo not drawn)	-27*	-16*	5.1*	-4	-1	0.65	3.6	i	-1.9
Cc1ccc(/C=C(\C#N)C(=O)N2CCCC2)c(C)c1	-18	-11	1.9	-5	-3	0.66	-5.1	i	1.9
CC(=O)Nc1ccc(-c2ccnc3c2CC(C(=O)Nc2ccc4c(c2)OCO4)O3)cc1 (stereo not drawn)	-1	-14	4.2	.	.	.	-3.6	i	.
Cc1ccc(N/C=C/C(=O)C(C)(C)C)c(O)c1	-5	-3	0.1	83*	-11	0.63	-1.0	.	-1.8
COc1ccc(Cc2nc(-c3ccc(-n4cccc4)cc3)no2)cc1	-6	-8	8.0	-4	1	0.75	-1.5	.	4.5

Compound activity (PubChem)

The list is partial (hit frequency here may not be typical).
